# Source: PubChem BioAssay (Johns Hopkins Ion Channel Center)
# KCNQ2 enhance – enhances the rat KCNQ2 potassium channel; AID 2239; B-score at 10 µM; actives 0.54% (n = 310,000); O88943; CHO-K1 KCNQ2, FluxOR thallium flux fluorescence; hits give high values;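 active means fluorescence ratio B-score at least 3 SD of library B-scores, with initial fluorescence B-score within 3 SD, cut at about 5.3 in these data; same plate scores as AID 2156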;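 further: B-score of peak minus minimum over baseline fluorescence ratio after K+ and Tl+ stimulus; positive B-score means potentiation of KCNQ2 with more thallium influx and brighter signal; only the inactives scoring about 0 or higher are listed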
# Target sequence (O88943 whole entry, looked up): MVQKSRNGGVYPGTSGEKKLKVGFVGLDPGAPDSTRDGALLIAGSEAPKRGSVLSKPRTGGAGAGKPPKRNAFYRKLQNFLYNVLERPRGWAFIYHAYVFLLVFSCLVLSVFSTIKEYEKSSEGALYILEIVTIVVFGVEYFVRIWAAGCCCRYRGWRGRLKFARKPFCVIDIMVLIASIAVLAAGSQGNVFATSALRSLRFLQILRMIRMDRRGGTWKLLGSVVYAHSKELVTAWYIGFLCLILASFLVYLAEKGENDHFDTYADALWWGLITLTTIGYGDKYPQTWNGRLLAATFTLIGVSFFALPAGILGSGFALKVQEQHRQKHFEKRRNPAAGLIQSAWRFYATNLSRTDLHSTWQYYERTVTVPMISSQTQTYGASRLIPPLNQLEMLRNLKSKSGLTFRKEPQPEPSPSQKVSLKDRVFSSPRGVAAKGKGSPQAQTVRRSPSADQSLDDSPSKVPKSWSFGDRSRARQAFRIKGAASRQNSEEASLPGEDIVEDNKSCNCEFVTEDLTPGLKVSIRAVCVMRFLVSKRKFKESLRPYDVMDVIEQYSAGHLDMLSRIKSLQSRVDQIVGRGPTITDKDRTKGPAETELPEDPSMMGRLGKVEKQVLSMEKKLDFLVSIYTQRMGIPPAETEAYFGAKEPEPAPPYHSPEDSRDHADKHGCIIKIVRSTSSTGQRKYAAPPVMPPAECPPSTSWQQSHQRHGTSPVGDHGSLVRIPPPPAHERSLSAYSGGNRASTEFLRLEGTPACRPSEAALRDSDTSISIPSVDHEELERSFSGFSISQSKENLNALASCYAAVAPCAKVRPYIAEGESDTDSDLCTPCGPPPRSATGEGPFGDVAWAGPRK
# KCNQ2 enhance baseline – recorded beside KCNQ2 enhance, whose call it bears; B-score; compound at 10 µM; measured here: initial fluorescence intensity artifact check;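 brightness before thallium and not channel activity; 0 = typical well and far values either way flag optical interference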
# * marks the source's active call; other numbers are inactive results. A portion of the library, so the mix of outcomes need not match the whole.
structure | KCNQ2 enhance | KCNQ2 enhance baseline
O=c1c2ccccc2ncn1-c1ccc(Cl)cc1Cl | 0.69 | -0.67
COc1ccc(CN2CCN(CCSc3ccc(C)cc3)CC2)c(OC)c1OC | 1.58 | -0.61
CN(CCc1ccccn1)C(=O)CCC1CCCN(C(=O)c2c3c(nn2C)CCCC3)C1 (configuration not stated) | 0.73 | -0.25
OCC1(CCCc2ccccc2)CCN(Cc2cc(F)ccc2F)CC1 | 1.11 | 0.72
O=c1oc2ccc(Cl)cc2nc1/C=C(\O)c1cccs1 | 0.13 | 0.94
COc1ccc(N2C(=O)CC(NC3CCCCNC3=O)C2=O)cc1 (configuration not stated) | 0.2 | 0.06
Cn1ccnc1SCC(=O)Nc1cccc([N+](=O)[O-])c1 | 0.39 | 0.82
COc1ccc(S(=O)(=O)NNC(=O)c2sccc2-n2cccc2)cc1 | 0.29 | -3.1
CCOC(=O)C(C)Sc1nnc2c3ccccc3n(C)c2n1 (configuration not stated) | 0.14 | 0.95
O=C1CCCC/C1=C\Nc1ccccc1C(=O)O | 0.04 | -1.77
COc1cccc(Nc2nnc(SCC(=O)N3CCOCC3)s2)c1 | 1.05 | -0.03
CNC(=O)CSc1ncnc2c1cnn2-c1ccccc1 | 0.18 | -0.13
COc1ccc(S(=O)(=O)NCC(=O)N(CC(=O)NCC2CCCO2)Cc2ccccc2)cc1 (configuration not stated) | 0.8 | 0.22
COc1ccc(C(=O)CC(=O)C(=O)Nc2ccc(C)cc2Cl)cc1 | 0.66 | -0.67
Cc1cnc(NS(=O)(=O)c2ccccc2)c(Br)c1 | 1.17 | -0.39
CCN(CC(=O)Nc1ccc2c(c1)OCCO2)CC(=O)Nc1ccc2c(c1)OCO2 | 0.27 | -0.82
CCOC(=O)C1=C(C)NC2=C(C(=O)C(C(=O)OCC)C(c3ccc(OC)cc3)C2)C1c1ccccn1 (configuration not stated) | 0.43 | 0.67
CC12CCC(c3c(C(=O)O)nn(-c4ccccc4)c31)C2(C)C (configuration not stated) | 0.88 | -0.37
CCn1c(SCC(=O)Nc2cc(NC(C)=O)ccc2OC)nnc1-c1ccncc1 | 1.36 | 1.94
NNC(=O)c1cc2ccccc2[nH]1 | 1.63 | -1.02
Fc1cccc(/C=N/NC(=S)Nc2ccccc2Cl)c1 | 2.1 | -0.01
COC(=O)c1ccc(NC(=O)C2CC2)o1 | 0.59 | 0
O=C(/C=C/c1ccc(Cl)cc1)N1CCOCC1 | 0.41 | -0.81
COCCCN1C(=O)C(O)=C(C(=O)c2ccc(C)o2)C1c1cccc(Br)c1 (configuration not stated) | 0.23 | -2.27
COCCn1c(SCC(=O)c2c[nH]c3ccccc23)nnc1-c1ccncc1 | 0.92 | 0.08
Cc1ccccc1-c1cccc(CN2CCN(C)C(CCO)C2)c1 (configuration not stated) | 0.03 | 0.82
Cc1cccc2nc(CSc3nc4[nH]ncc4c(=O)n3-c3ccccc3Cl)cc(=O)n12 | 0.07 | -0.16
CO/N=C/c1ccc(Sc2ccc(C)cc2)c([N+](=O)[O-])c1 | 0.8 | 0.04
COC(=O)C(CC(C)C)NC(=O)c1cccs1 (configuration not stated) | 0.16 | -1.19
O=C(CN1C(=O)C2CCCCC2C1=O)N1CCN(c2ccc(F)cc2)CC1 (configuration not stated) | 0.05 | 1.56
O=C1CCC(C(=O)N(CCO)Cc2ccccc2)CN1CC1CCCCC1 (configuration not stated) | 0.62 | -1.78
Cc1ccc(S(=O)(=O)N(CC(=O)Nc2cccnc2)c2cccc([N+](=O)[O-])c2)cc1 | 0.89 | -0.89
CC(C)(C)NC(=O)C(=O)NNC(=O)c1ccccc1Br | 0.94 | -1.67
O=C(OC(C(=O)NCc1cccs1)c1ccccn1)c1cccs1 (configuration not stated) | 0.1 | -0.29
C/C(Cn1cnc([N+](=O)[O-])n1)=N/NC(=O)COc1ccccc1Cl | 0.2 | 0.04
C/C(=N\NC(=O)COc1ccc(C)cc1C(C)C)c1ccc(-n2ccnc2)cc1 | 0.06 | 1.14
O=[N+]([O-])c1cc(C(F)(F)F)ccc1NCCCN1CCOCC1 | 1.86 | -1.84
N#Cc1ccccc1/C=N/Nc1nc(-c2ccccc2)c2cc(Cl)ccc2n1 | 0.05 | -1.08
COc1ccc(CN2CCCC(C(=O)N(C)Cc3ccccc3)C2)cc1OC (configuration not stated) | 1.46 | -0.1
Cc1cccc(NC(=O)CSCC(=O)N=c2sccn2C)c1 | 0.71 | -0.67
OCC[C@@H]1C[C@H](O)[C@@H](O)[C@@]2(OCCCc3ccccc32)O1 | 0.35 | -0.78
O=C(Oc1ccc(Nc2ncnc3ccccc23)cc1)c1cccnc1 | 0.07 | -2.02
O=C(Nc1ccc(F)cc1Cl)c1ccc2c(=O)n3c(nc2c1)CCCCC3 | 0.6 | 0
CN(Cc1ccccc1)C(=O)CCC1CCN(C(=O)c2ccccc2C(F)(F)F)CC1 | 0.05 | -0.02
Cc1cccc(NC(=O)CSc2nc(N)cc(N)n2)c1 | 1.99 | -2.72
O=C(NNc1cc(N2CCOCC2)nc(N2CCOCC2)n1)c1ccc(Cl)cc1Cl | 0.76 | -2.58
COC1=C/C(=C/c2c(N)n3nc(CC(=O)N4CCCC4)sc3nc2=O)C=CC1=O | 1.01 | 1.32
Cc1ccc(N=C2C(=O)Nc3ccc(Br)cc32)cc1 | 1.04 | -1.49
O=C(CSc1nc2c([nH]c3ccccc32)c(=O)n1-c1cccc(Cl)c1)N1CCOCC1 | 1.77 | 3.12
CN(C)S(=O)(=O)c1ccc(C(=O)N2CCCC2c2nc3ccccc3s2)cc1 (configuration not stated) | 0.07 | 0.08
CC1CC(C)(C)NC(=S)N1CCCC(=O)NCCc1ccc(Cl)cc1 (configuration not stated) | 1.35 | -0.86
O=C(Nc1nc(COc2ccccc2)cs1)c1ccccc1F | 0.02 | -0.02
COc1ccc(NS(=O)(=O)c2ccc(-c3coc(C)n3)cc2)c(OC)c1 | 0.85 | 1.33
COc1ccc(-c2nnn(CC(=O)N(CC(=O)NC3CCCC3)Cc3ccco3)n2)cc1OC | 1.38 | 0.99
O=c1oc2ccccc2c2c1nnn2CCO | 0.23 | 0.33
O=C(CN1C(=O)NC2(CCCC2)C1=O)OCc1ccc(F)cc1 | 0.7 | -0.61
Cn1c(=O)n(CC(=O)O)c(=O)c2c1nc1n2CCCN1Cc1ccccc1 | 0.12 | 0.79
COc1cccc(CNCc2ccco2)c1O | 0.48 | 0.57
Cc1onc(-c2c(Cl)cccc2Cl)c1NC(=O)NC1CCSC1 (configuration not stated) | 0.72 | -0.17
CC(C)(C)NCc1cc2ccccc2[nH]c1=O | 0.3 | 0.9

# Continued:
structure | KCNQ2 enhance | KCNQ2 enhance baseline
S=C(Nc1ccccc1Cl)NC1CCN(Cc2ccccc2)CC1 | 0.33 | 1.45
CCOC(=O)c1cc(-c2cccs2)[nH]n1 | 1.26 | 2.2
O=C(Nc1nc2ccccc2c(=O)[nH]1)c1ccccc1SCc1ccccc1 | 0.42 | 0.29
CC(Cc1ccccn1)NC(=O)c1ccc(OC2CCN(Cc3ccccn3)CC2)cc1 (configuration not stated) | 1.59 | -4.17
CCc1cc2c3c(c1)C(C)CC(C)(C)N3C(=O)/C2=C1\SC(=O)NC1=O (configuration not stated) | 2.51 | 0.22
CN(C)N=C1c2cc(S(=O)(=O)N3CCOCC3)ccc2-c2ccc(S(=O)(=O)N3CCOCC3)cc21 | 1.08 | -1.06
CN(C)c1ccc(/C=C2/C=C(c3ccc4c(c3)CCCC4)OC2=O)cc1 | 0.63 | -0.02
CCN1CCN(Cc2ccc(NC(=O)Nc3ccc(OC)cc3)cc2)CC1 | 0.42 | 1.21
O=C(O)c1ccc2[nH]c3c(c2c1)CSCC3 | 1.15 | -0.26
CCOc1ccc(CCNC(=O)COC(=O)COc2cc(C)cc(C)c2)cc1OCC | 1.41 | 0.93
N#Cc1cc2c(nc1SCC(=O)Nc1sc3c(c1C#N)CCC3)CCCC2 | 0.94 | -0.54
CC(C)N1CCN(Cc2ccc(C#CC(C)(C)O)s2)CC1CCO (configuration not stated) | 0.05 | -1.25
Cc1cc(C(=O)Nc2ccc3c(c2)OCCO3)co1 | 0.4 | -1.03
c1ccc(-c2ccc(OCCOCCn3cncn3)cc2)cc1 | 2.23 | -0.76
O=C(O)c1ccccc1Nc1ccc(OC(F)F)cc1 | 1.96 | 1.24
COc1cccc(-c2ocnc2C(=O)Nc2ccc3c(c2)CCC3)c1 | 1.43 | -1.24
O=C(CCC(=O)N1CCN(c2ccc(F)cc2)CC1)c1ccccc1 | 2.44 | 0.85
COc1ccccc1Cn1c(=S)[nH]c2cc(C(=O)NCC3CCCO3)ccc2c1=O (configuration not stated) | 1.96 | -0.35
CCNC(=S)NNC(=O)CCn1c2ccccc2c2ccccc21 | 0.14 | -1.09
COC(=O)c1ccc(NC(=O)c2cccc(Cl)c2)o1 | 0.79 | 0.56
O=C1C2CCCCN2C(=O)N1CCCCN1CCN(c2ccc(F)cc2)CC1 (configuration not stated) | 0.33 | 1.08
CCNC(=S)NCc1ccc2[nH]c(C)cc2c1 | 0.88 | 0.65
CCCn1c(SCN2C(=O)c3ccccc3C2=O)nc2cc(Cl)ccc2c1=O | 4.97 | 1.48
Cc1ccc(NC(=O)O/N=C2\CCCCC2c2ccc([N+](=O)[O-])cc2[N+](=O)[O-])cc1 (configuration not stated) | 0.36 | 0.29
Cc1ccc(CNC(=O)CSc2ncccn2)cc1 | 0.03 | -0.97
Clc1ccc(Nc2ncnc3ccc(Br)cc23)cc1 | 0.45 | -1.05
O=C(NCCSCc1ccc(Cl)cc1Cl)c1ccc(CN2CCOCC2)cc1 | 0.95 | 0.06
CC(C)Cc1cc(C(=O)Nc2sc3c(c2C#N)CCCC3)no1 | 1.38 | -0.63
CCCN1C(=O)/C(=C/c2ccc(C)o2)NC1=S | 0.77 | -0.12
CC(/C=N/NC(=O)CCn1nnc2ccccc21)=C\c1ccccc1 | 0.94 | -2.19
NC(c1ccccc1)c1cccnc1 (configuration not stated) | 1.26 | 0.26
Cc1cc(Nc2ccc(F)c(Cl)c2)n2ncnc2n1 | 0.43 | 1.3
CCOc1ccc(NC(=O)CCN2C(=S)NC(C)(C)CC2C)cc1 (configuration not stated) | 1.3 | 0.03
Cc1cc(C(=O)OCC(=O)c2cccs2)c2ccccc2n1 | 1.13 | -0.18
CC(C)(C)OC(=O)N/N=C/c1cccn1-c1ccc([N+](=O)[O-])cc1 | 2.56 | 0.12
COc1ccccc1NC(=O)c1ccc2c(c1)CCN2S(C)(=O)=O | 0.07 | 0.38
COc1cc(C(=O)N2CCN(c3ccccc3)CC2)c([N+](=O)[O-])cc1OC | 0.89 | -0.06
CCCCc1nc2cc(C(=O)N3CCN(c4cnccn4)CC3)ccc2o1 | 1.28 | -0.95
Cc1ncoc1C(=O)NCCC(c1ccccc1)c1ccccc1 | 2.75 | -0.01
COc1ccccc1C(=O)Nc1nc2cc3c(cc2s1)OCCO3 | 0.07 | 2.15
COc1cc(/C=N/N=C(/N)c2nonc2N)cc(Br)c1OCc1cccc(C)c1 | 0.18 | -2.1
CCn1cc([N+](=O)[O-])c(C(=O)Nc2cc(C)on2)n1 | 0.5 | -1.56
COc1ccccc1NS(=O)(=O)c1cc(C(=O)N2CCN(C/C=C/c3ccccc3)CC2)ccc1C | 0.17 | 0.94
COc1ccc(C)cc1S(=O)(=O)N(C)CC(=O)NC1CCCCC1 | 1.11 | -1.19
Nc1nnc(Sc2ncccc2[N+](=O)[O-])s1 | 1.54 | -1.15
CSc1nc2nc(-c3cccs3)cc(C(F)(F)F)c2c(=O)[nH]1 | 0.33 | -0.02
COC(=O)[C@H](C)NC(=O)N1CCC(Cc2ccccc2)CC1 | 1.08 | -0.02
CC(Sc1nnc(-c2ccccc2Br)n1-c1cccc(C(F)(F)F)c1)C(N)=O (configuration not stated) | 0.74 | 0.53
COc1ccc(C(=O)N[C@H](C(=O)Nc2ccc(OC)nc2)C(C)C)cc1 | 0.56 | 0.21
CCOc1ccc(NC(=O)Cn2cc(C(C)=O)c3ccccc32)cc1 | 0.41 | -1.98
O=C(NCc1ccccc1)c1cc(-c2ccncc2)nc2ccccc12 | 2.34 | -1.85
Cc1ccc(-c2csc3nc[nH]c(=S)c23)cc1 | 13.6* | 1.84*
O=C(NNC(=O)C1CCN(Cc2cccc(F)c2)CC1)c1cccs1 | 1.39 | -0.86
COc1ccc(S(=O)(=O)NCc2ccco2)cc1N(C)S(=O)(=O)c1ccccc1 | 2.77 | 3.65
Cc1cccc(/C(N)=N/OC(=O)Cc2cccs2)c1 | 1.4 | 1.38
CCCCNC(=O)Nc1ccccc1C(=O)NCc1ccco1 | 0.19 | 0.02
Cc1cc(NC(=O)CCSc2ccc(Cl)cc2)no1 | 1.88 | -0.19
CC(NC(=O)c1ccccc1F)c1nnc(SCC(=O)NC2=NCCS2)n1C (configuration not stated) | 1.85 | 1.15
CCOC(=O)c1cc2sc(C)cc2n1CC(=O)N1CCN(C(=O)c2ccco2)CC1 | 0.28 | -1.05

# Rewritten with values under each structure: part of the list above.
# Under each structure – KCNQ2 enhance	KCNQ2 enhance baseline
- COc1ccc(C)cc1S(=O)(=O)N(C)CC(=O)NC1CCCCC1
    1.11	-1.19
- Nc1nnc(Sc2ncccc2[N+](=O)[O-])s1
    1.54	-1.15
- CSc1nc2nc(-c3cccs3)cc(C(F)(F)F)c2c(=O)[nH]1
    0.33	-0.02
- COC(=O)[C@H](C)NC(=O)N1CCC(Cc2ccccc2)CC1
    1.08	-0.02
- CC(Sc1nnc(-c2ccccc2Br)n1-c1cccc(C(F)(F)F)c1)C(N)=O (configuration not stated)
    0.74	0.53
- COc1ccc(C(=O)N[C@H](C(=O)Nc2ccc(OC)nc2)C(C)C)cc1
    0.56	0.21
- CCOc1ccc(NC(=O)Cn2cc(C(C)=O)c3ccccc32)cc1
    0.41	-1.98
